ALR inh: blocks human ALR sulfhydryl oxidase activity. P55789. purified ALR, DTT oxidation, H2O2 HRP-luminol luminescence. inhibition, % (test concentration not listed). actives 3.8% (n = 290,000). AID 485317;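 active = mean and each replicate at 75% or more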;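 also: stock transfer was 7.5 nL into about 7.5 µL; 0% = neutral wells and 100% = wells with inactivated enzyme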
HNF4A DNA FP: change in binding of human HNF4 alpha to DNA | actives 0.3% (n = 360,000) | HNF4a-FITC DNA binding, fluorescence polarization, 1 h | P41235 | activity change, % at 10 µM; in the data active = activity change above about 30%, passing the limit was not always enough;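 also: controls were the assay level and a saturating level of protein; the project sought stronger binding though the title names inhibitors; some compounds called inactive have numbers as strong as hits; positive values seem to mean higher polarization but the record does not say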
B2AR ag: agonists of human beta-2 adrenergic receptor inducing internalization; P07550; Am2.2-beta2AR cells, FAP receptor internalization, flow cytometry; reference of the scale not given here; actives 0.43% (n = 340,000); response, % (concentration not given with the values);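 active = response above a set limit, near 3 SD of response in nonfluorescent compounds, cut at about 42% in these data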;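 also: stock transfer was 100 nL into about 11 µL; a reference agonist was the positive control; negative values mostly stem from fluorescent compounds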
FGF22 binding: FGF22 (human) thermal shift binding. Q9HCT0. recombinant FGF22 thermal shift, SYPRO orange fluorescence; percent of sucrose octasulfate shift, DMSO zero. calls only at 9.99 µM. actives 1.5% (n = 340,000). AID 651658;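 active = melting point raised past a set limit in the mean and every replicate; three in four hits are not shown here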
E coli growth: inhibitors of Escherichia coli growth. OD600, 23 h; active compounds read low. AID 1053175. actives 0.21% (n = 330,000). OD600 absorbance (no concentration beside the values);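 active = OD600 absorbance below the run mean of sample wells minus 3.6 SD, in any replicate, cut at about 0.56 in these data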;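 also: stock transfer was 300 nL into about 60 µL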
LANA-H2B inh: blocks KSHV LANA binding to histone H2A/H2B. Q9QR71. cell-free LANA-H2A/H2B peptide, fluorescence polarization. inhibition, % (concentration not given with the values). actives 0.6% (n = 320,000). AID 2629; in the data active = inhibition mostly above about 10%, no sharp cut-off; inactive = mostly below about 6.7%;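 also: stock transfer was 7.5 nL into about 10 µL; 0% = median of vehicle wells and 100% = median of positive control wells; one replicate is shown; the record names a cut of 25% in any replicate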
Target sequence (Q9QR71 whole entry, looked up): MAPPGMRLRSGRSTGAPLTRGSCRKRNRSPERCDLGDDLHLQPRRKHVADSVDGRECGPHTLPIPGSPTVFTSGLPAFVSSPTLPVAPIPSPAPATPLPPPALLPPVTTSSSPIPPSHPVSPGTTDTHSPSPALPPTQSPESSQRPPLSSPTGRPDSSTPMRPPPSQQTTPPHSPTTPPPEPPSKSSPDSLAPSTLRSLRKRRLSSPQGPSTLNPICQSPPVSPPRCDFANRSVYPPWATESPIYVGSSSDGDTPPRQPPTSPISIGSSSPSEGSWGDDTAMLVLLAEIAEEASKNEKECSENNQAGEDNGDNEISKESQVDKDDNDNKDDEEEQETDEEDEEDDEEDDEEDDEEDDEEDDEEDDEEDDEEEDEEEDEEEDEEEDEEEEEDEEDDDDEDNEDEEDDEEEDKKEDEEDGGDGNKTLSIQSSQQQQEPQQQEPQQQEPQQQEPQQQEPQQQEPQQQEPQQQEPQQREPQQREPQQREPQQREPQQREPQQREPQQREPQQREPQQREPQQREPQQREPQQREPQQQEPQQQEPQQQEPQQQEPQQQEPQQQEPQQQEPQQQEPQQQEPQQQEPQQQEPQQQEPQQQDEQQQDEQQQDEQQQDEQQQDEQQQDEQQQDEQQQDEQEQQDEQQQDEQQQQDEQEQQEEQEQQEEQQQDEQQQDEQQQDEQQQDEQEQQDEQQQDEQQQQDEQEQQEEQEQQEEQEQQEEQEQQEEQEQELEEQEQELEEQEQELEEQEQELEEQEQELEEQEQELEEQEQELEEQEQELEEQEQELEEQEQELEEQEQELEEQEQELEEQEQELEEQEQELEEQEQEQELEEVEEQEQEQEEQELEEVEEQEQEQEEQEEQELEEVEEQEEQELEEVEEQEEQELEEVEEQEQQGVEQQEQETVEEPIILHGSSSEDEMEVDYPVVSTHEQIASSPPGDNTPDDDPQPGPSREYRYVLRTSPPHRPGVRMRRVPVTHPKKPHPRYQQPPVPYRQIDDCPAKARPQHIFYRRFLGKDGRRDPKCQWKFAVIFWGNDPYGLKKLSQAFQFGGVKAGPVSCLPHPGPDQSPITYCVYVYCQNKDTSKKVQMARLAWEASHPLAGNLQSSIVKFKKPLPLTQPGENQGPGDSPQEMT
UCH37 DUB inh: inhibitors of human deubiquitinating enzyme UCH37 | Q9Y5K5 | purified proteasome/UCH37, Ub-AMC cleavage fluorescence | inhibition, % (test concentration not listed) | actives 0.33% (n = 330,000);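 active = mean of two replicates above 20%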;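 also: 0% = compound-free wells with enzyme and 100% = wells lacking proteasome; stock transfer was 100 nL into about 20 µL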
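System: Proteasome-associated human UCH37 deubiquitinase; Input: 0.15 nM proteasome in added enzyme buffer; Also added: Ub-AMC substrate from 1 µM stock; Incubation: 30 min compound-proteasome preincubation then 25 min substrate reaction, room temperature; Detection: fluorescence, ex 355 nm, em 460 nm; Read-out: % inhibition of Ub-AMC cleavage fluorescence; Benchmarks: no-proteasome and no-compound wells.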
Active calls of the source: *; i = inactive; x = no result given; + = active, no number.

Results follow in this order: ALR inh	HNF4A DNA FP	B2AR ag	FGF22 binding	E coli growth	LANA-H2B inh	UCH37 DUB inh
> COc1ccc(C(=O)N2CCCC(Nc3ccc(C)c(C)c3)C2)cc1 (centres undefined)
    98*	4.1	-2	i	0.7	2.2	4.5
> Cn1c(CCC(=O)OCC(=O)NCC(F)(F)F)nc(=O)c2ccccc21
    2	0.1	-13	i	0.58	-3.0	-36
> COc1cc(SC)ccc1C(=O)N1CCN(c2ccc(O)cc2)CC1
    99*	1.4	-9	i	0.72	1.2	4.1
> CCOC(=O)c1c(CSc2ccccc2)oc2ccc(O)cc12
    10	0.3	-3	i	0.67	0.3	3.9
> COc1cc(NC(=O)CSc2nc3ccccc3cc2C)c(C(=O)O)cc1OC
    4	-0.9	0	x	0.7	1.8	6.5
> C=CCn1c(COc2ccccc2F)nnc1SCC(=O)Nc1cc2oc3ccccc3c2cc1OC
    -1	1.5	-4	x	0.77	-0.3	1.4
> CCN(CC)c1ccc(N=Cc2cc(Br)ccc2O)cc1
    28	20	8	i	0.68	2.8	6.7
> O=C(COc1ccccc1F)N/N=C1\CCCc2ccccc21
    -6	-3.8	-3	i	x	0.8	x
> CCCCN(C(=O)c1ccc([N+](=O)[O-])s1)c1c(N)n(CC(C)C)c(=O)[nH]c1=O
    x	-2.1	8	i	0.72	-4.1	-0.7
> O=C(c1cccs1)N1CCN=C1SCc1cccc(F)c1
    -10	0.0	-21	i	0.72	3.2	2.1
> CC(C)(O)C#Cc1ccc(CN2CCN(C3CCCCC3)C(CCO)C2)s1 (centres undefined)
    7	1.9	1	i	0.68	-2.8	2.9
> O=S1(=O)C=CC(c2ccccc2)C1 (centres undefined)
    -7	3.2	-8	i	0.68	1.7	5.5
> CCN1C(=O)N[C@@H](c2ccccc2)[C@@H](C(=O)OC)[C@H]1C
    -6	2.5	-5	i	x	-7.7	2.7
> Cc1ccc2c(c1)C(=O)C(=O)N2c1ccc(C(F)(F)F)cc1
    -3	-4.5	2	i	0.69	-224	2.2
> O=C(CSCSCC(=O)NCC1CCCO1)NCC1CCCO1 (centres undefined)
    -8	-1.0	2	i	0.7	-2.8	2.2
> Brc1cc2c(cc1-c1nc3ccccc3s1)OCO2
    x	3.6	-6	i	0.71	-3.1	4.3
> O=C(COC(=O)CCc1nc2ccccc2c(=O)[nH]1)NC1CCS(=O)(=O)C1 (centres undefined)
    -2	-2.2	4	i	0.64	-0.9	0.0
> CN(CC(=O)Nc1ccccc1C(F)(F)F)C(=O)C1=COCCO1
    -2	1.1	-3	i	0.72	-2.2	2.0
> COc1cc(SC)ccc1C(=O)OCC(=O)N1CCCC1
    x	2.4	3	i	0.65	4.3	6.5
> O=C(NC1CC1)C1CCN(C2CCN(C(=O)Cc3ccc(F)cc3)CC2)CC1
    -3	0.8	-6	i	0.68	-2.3	3.7
> O=C(c1ccc(Cl)c(S(=O)(=O)N2CCCC2)c1)N1CCN(c2ncccn2)CC1
    0	-2.7	8	i	0.67	1.2	1.2
> O=C1c2oc3ccc(Cl)cc3c(=O)c2C(c2ccco2)N1CCN1CCOCC1 (centres undefined)
    10	4.4	6	i	0.79	-0.4	-2.9
> CCn1c(=NC(=O)C2COc3ccccc3O2)sc2c(OC)ccc(OC)c21 (centres undefined)
    -6	-1.4	-5	i	0.68	0.5	-1.8
> C1CCN(c2nc3nonc3nc2N2CCCCC2)CC1
    2	3.3	3	i	0.63	1.5	9.7
> CCN=C1SC(C(N)=O)CC(=O)N1CC (centres undefined)
    x	0.1	-2	x	0.7	-0.3	-1.0
> CCCOc1ccc(/C(O)=C2/C(=O)C(=O)N(CCN3CCOCC3)C2c2ccccc2)cc1 (centres undefined)
    x	-4.6	-13	i	0.7	x	-0.1
> CCn1cc(C(=S)N2CCC(C(N)=O)CC2)c2ccccc21
    -10	4.5	-1	i	0.62	-0.8	5.0
> Cc1cccc(NC(=O)NCCN2CCN(c3ccccc3)CC2)c1C
    23	0.4	9	i	0.64	-2.6	0.2
> CCOc1cc(NS(=O)(=O)c2ccc(OC)cc2)c(OCC)cc1NC(C)=O
    -3	2.2	-1	i	0.73	0.7	1.7
> CC(C)c1ccc(OCC(=O)Nc2c3c(nn2C(C)(C)C)CS(=O)(=O)C3)cc1
    -7	3.6	6	i	0.6	-6.9	2.4

Record cards (already shown). Screens in order: ALR inh | HNF4A DNA FP | B2AR ag | FGF22 binding | E coli growth | LANA-H2B inh | UCH37 DUB inh
Shown for `COc1cc(NC(=O)CSc2nc3ccccc3cc2C)c(C(=O)O)cc1OC` = 4 | -0.9 | 0 | x | 0.7 | 1.8 | 6.5
Shown for `CCCOc1ccc(/C(O)=C2/C(=O)C(=O)N(CCN3CCOCC3)C2c2ccccc2)cc1` (centres undefined) = x | -4.6 | -13 | i | 0.7 | x | -0.1

Next section
Results follow in this order: ALR inh	HNF4A DNA FP	B2AR ag	FGF22 binding	E coli growth	LANA-H2B inh	UCH37 DUB inh
> O=C(NCc1cccnc1)C(=O)NCC1OCCCN1S(=O)(=O)c1ccc(F)cc1 (centres undefined)
    -7	2.7	0	i	0.68	-1.4	0.7
> CN(Cc1ccc(Cl)c(Cl)c1)C(=O)C1CSC2(C)CCC(=O)N12 (centres undefined)
    0	1.1	-2	i	0.67	0.1	3.6
> COC(=O)CNC(=O)COC(=O)c1cc(Cl)cc(Cl)c1N
    -7	1.7	4	x	0.72	-1.2	i
> CC(C)Nc1nc(NC2CCCC2)nc(N2CCOCC2)n1
    x	-1.2	-4	i	0.69	x	2.6
> Nc1cc(N)nc(SCc2nnnn2-c2ccc(Cl)cc2)n1
    -26	3.0	-1	x	0.72	-1.0	5.9
> CSC(SC)=C(C(C)=O)C(=O)c1ccc(C)cc1
    -5	1.3	14	i	0.67	-0.7	5.2
> NS(=O)(=O)c1ccc(CCNC(=O)C2CCCN(S(=O)(=O)c3cccnc3)C2)cc1 (centres undefined)
    1	-1.4	-5	i	0.68	-0.9	2.5
> Cc1ccccc1CN(c1ccc(C(N)=O)cc1)S(C)(=O)=O
    -16	1.5	6	x	0.61	-4.3	1.8
> Cc1ccc(-c2nc(CS(=O)CC(=O)NCc3ccco3)c(C)o2)cc1 (centres undefined)
    99*	0.9	5	i	0.63	-3.4	0.0
> Cc1nc2ccc(S(=O)(=O)N(C)CC(=O)NC(C)c3ccccc3)cc2s1 (centres undefined)
    0	2.0	-5	i	0.68	3.3	3.2
> Cc1cc(O)c(C(C)C)cc1NC(=O)Nc1ccc([N+](=O)[O-])cc1
    x	4.6	5	i	0.61	x	7.4
> O=C(CSCc1ccc([N+](=O)[O-])cc1)N/N=C/c1cccnc1
    -1	5.4	1	i	x	-16	x
> CC(C)(C)c1ccc(S(=O)(=O)Nc2noc3ccccc23)cc1
    -1	-0.2	0	x	0.63	-2.4	1.0
> O=C(NCc1ccc2c(c1)OCO2)c1ccc(COc2cccc(Cl)c2)o1
    19	-0.4	-6	x	0.69	-1.5	4.5
> Cc1ccc(S(=O)(=O)N[C@H](C(=O)NC2CCC(C)CC2)C(C)C)cc1 (some centres undefined)
    3	-3.4	10	i	0.68	-0.6	-3.2
> O=C(N/N=C/c1ccccn1)c1cc(-c2cccc3ccccc23)n[nH]1
    -2	1.2	5	i	x	0.4	x
> NS(=O)(=O)c1ccc(NC(=S)NCCc2ccccc2)cc1
    x	-0.1	4	+	0.71	-0.9	2.5
> Cc1cccc(NC(=O)c2nc[nH]c2C(=O)NCCN(CCNC(=O)c2[nH]cnc2C(=O)Nc2cccc(C)c2)CCNC(=O)c2[nH]cnc2C(=O)Nc2cccc(C)c2)c1
    -2	-1.2	1	i	0.71	4.9	-0.5
> CCOC(=O)N1C(=O)[C@](c2ccc(Cl)cc2)(C(C)C)N1C(=O)OCC
    -4	2.3	10	i	0.63	-4.9	1.6
> O=C1OC2(CCCCC2)OC(=O)C1=CNc1nc2ccccc2s1
    6	-6.3	-4	x	0.74	-2.5	-56
> Cc1ccnn1CC(=O)N/N=C/c1c[nH]c2ccccc12
    x	-1.7	6	i	x	4.9	x
> O=S(=O)(NC1CCN(S(=O)(=O)c2ccc3c(c2)OCCO3)C1)c1c(F)cccc1F (centres undefined)
    -5	-5.8	2	i	0.71	-5.3	1.6
> Cc1c(C)c(C)c(S(=O)(=O)N2CCSCC2)c(C)c1C
    -15	-0.8	11	i	0.65	5.5	2.1
> CC(=O)c1cnn(-c2nc3c(C)cccc3s2)c1C
    4	0.7	-10	x	0.69	-3.5	-1.6
> COc1cccc(NC(=O)CSc2nc3ccccc3nc2N2CCOCC2)c1
    -1	-0.5	2	i	0.72	-6.8	4.4
> Cc1noc(C)c1COC(=O)c1ccc2c(c1)OCO2
    -5	2.0	-3	x	0.69	0.0	2.4
> O=C(C[n+]1cc(Br)cc(Br)c1)c1ccc(Cl)cc1
    -2	2.5	3	i	0.7	0.6	4.6
> COc1ccc(Nc2nc(N3CCCCC3)c3ccccc3n2)cc1
    72	0.0	0	x	0.64	-9.5	-6.8
> O=[N+]([O-])c1ccc(Cl)c(/C=N/N2CCN(Cc3ccccc3Cl)CC2)c1
    -2	6.7	-3	x	x	3.2	x
> COc1ccccc1N(CC(=O)Nc1cc(C)on1)S(=O)(=O)c1cccc(C(F)(F)F)c1
    -1	-1.6	-1	i	0.68	-1.0	2.3
> CCn1c(N)c(Br)c(=O)[nH]c1=O
    -5	-1.3	2	x	0.65	0.0	-1.9
> O=C(COC(=O)c1cnccn1)c1ccc(OC(=O)c2ccccc2)cc1
    -11	-0.2	7	x	0.71	4.2	0.7
> Cc1cc(C)cc(NC(=O)C2CCCN(c3nccc(C)n3)C2)c1 (centres undefined)
    -4	-1.1	-8	i	0.75	1.6	1.6
> CCOC(=O)CNC(=O)c1cccnc1Oc1ccc(Cl)cc1
    -5	-1.6	7	i	0.7	-0.1	2.1
> CCCCNCCS(=O)(=O)NCc1ccccc1
    x	-0.5	6	i	x	x	x
> COc1ccc(NC(=O)C2CC(=O)N/C(=N/NC(=O)c3ccc(Cl)cc3)S2)cc1 (centres undefined)
    8	-0.3	-6	i	0.68	0.6	3.0
> Cc1cc(C)n(-c2nnc(Cl)c3ccccc23)n1
    x	5.5	-1	i	0.72	4.7	-0.3
> CCOC(=O)Cc1csc(NC(=O)COc2ccccc2OCC)n1
    -28	-2.6	-6	x	0.68	-1.9	1.6
> COc1ccc2c(c1)O[C@@H](c1cccc(C(F)(F)F)c1)[C@H](O)C2=O
    -1	x	-2	x	x	2.7	0.9
> Cc1cccnc1NC(=O)COc1ccc2c(c1)CCC2
    -6	0.3	-3	i	0.66	0.5	0.6
> CCCCn1c(CN2CCN(C(=O)c3ccco3)CC2)nc2c1c(=O)n(C)c(=O)n2C
    -7	0.2	-11	i	0.72	-7.9	4.5
> CCCCN(C(=O)c1ccc2c(c1)S(=O)(=O)N=C1CCCCCN12)c1c(N)n(CCCC)c(=O)[nH]c1=O
    0	1.6	3	i	0.62	-8.4	-3.9
> O=C1OCCN1C(=O)[C@H]1[C@H](c2ccc([N+](=O)[O-])cc2)C(c2ccccc2)=NN1c1ccccc1
    x	-1.5	-7	i	0.72	x	2.8
> CCOC(=O)N1CCN(C(=O)COC(=O)C2CCN(S(=O)(=O)c3ccc(C)c(C)c3)CC2)CC1
    -5	-1.9	-2	i	0.66	-0.7	3.3
> CNc1nc(-c2ccc3c(c2)CCN3C(=O)c2ccc(F)cc2)cs1
    x	1.5	13	x	0.68	x	3.9

An excerpt from above in order of length of the SMILES, falling.
Results follow in this order: ALR inh	HNF4A DNA FP	B2AR ag	FGF22 binding	E coli growth	LANA-H2B inh	UCH37 DUB inh
> COc1ccc(NC(=O)C2CC(=O)N/C(=N/NC(=O)c3ccc(Cl)cc3)S2)cc1 (centres undefined)
    8	-0.3	-6	i	0.68	0.6	3.0
> O=C(COC(=O)c1cnccn1)c1ccc(OC(=O)c2ccccc2)cc1
    -11	-0.2	7	x	0.71	4.2	0.7
> CCn1c(N)c(Br)c(=O)[nH]c1=O
    -5	-1.3	2	x	0.65	0.0	-1.9

The list is partial. The share of hits here may be higher or lower than overall.
